# Screening data (PubChem)
# Rce1 inh: blocks yeast Ras-converting enzyme; Q03530; yeast membranes, quenched prenylated peptide cleavage fluorescence; calls only; 290,000 tested, 0.27% active;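 active = fall in fluorescence gain of 50% or more versus controls, with final raw signal at or below 3038400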;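 note: plate controls were neutral control wells for no effect and wells lacking membranes for full effect; tested at 10 µM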
# CSC inhib: cancer stem cell inhibition. cancer stem cell-like cells viability, luminescence. inhibition, % at 7.5 µM. 300,000 tested, 1.1% active. AID 2717;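 active = mean at 75% or more and at least half the replicates too; tested in HMLE shEcad cells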;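 note: 0% = median of negative and 100% = median of positive control wells; the first replicate is given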
# PABP FP inh: PABP-poly(A) binding inhibition; inhibition, % at 35 µM; PABP-poly(A) RNA binding, fluorescence polarization; AID 2014; P11940; 290,000 tested, 1% active;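 active = 50% or more with normal probe brightness, or confirmed in later tests; about a fifth of its hits are not listed in these tables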;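 note: calls also rest on retests at 20 µM and on dose response follow-up; controls were probe without protein and protein plus probe with vehicle; some compounds called inactive have numbers as strong as hits; many hits fall short of the cut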
# Target sequence (P11940 whole entry, looked up): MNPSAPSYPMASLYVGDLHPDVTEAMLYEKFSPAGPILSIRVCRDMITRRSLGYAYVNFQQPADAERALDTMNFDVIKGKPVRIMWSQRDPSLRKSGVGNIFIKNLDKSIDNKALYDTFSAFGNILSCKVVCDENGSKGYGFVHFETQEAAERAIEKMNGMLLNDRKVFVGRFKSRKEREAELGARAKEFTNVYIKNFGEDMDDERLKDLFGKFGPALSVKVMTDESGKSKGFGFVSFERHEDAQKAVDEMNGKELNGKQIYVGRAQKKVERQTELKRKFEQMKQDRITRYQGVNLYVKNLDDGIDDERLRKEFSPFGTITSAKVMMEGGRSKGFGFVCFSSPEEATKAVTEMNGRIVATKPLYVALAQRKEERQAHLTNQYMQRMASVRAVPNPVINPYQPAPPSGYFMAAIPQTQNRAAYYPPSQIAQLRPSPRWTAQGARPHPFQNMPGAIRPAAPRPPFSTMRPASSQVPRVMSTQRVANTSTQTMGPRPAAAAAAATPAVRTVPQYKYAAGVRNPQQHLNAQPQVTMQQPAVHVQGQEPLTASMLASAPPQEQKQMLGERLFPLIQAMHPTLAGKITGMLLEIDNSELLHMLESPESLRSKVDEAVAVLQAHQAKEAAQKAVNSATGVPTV
# MT1-MMP act inh: inhibitors of human MT1-MMP activation; HT1080 RFP-PRO-GFP cells, GFP/RFP ratio fluorescence, overnight; percent of plate control window, DMSO zero; GFP/RFP ratio change, % at 20 µM; 360,000 tested, 0.061% active; AID 651647;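 active = GFP/RFP ratio change of at least 30% with cell ATP level not reduced by more than half and red fluorescence within 50% of control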; note: strong numbers were not always called active
#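 system = RFP-PRO-GFP reporter HT1080 cells | dosing = 20 µM single dose, 1% DMSO | timing = overnight cell settling, then overnight compound exposure, 37 °C, 5% CO2 | read-out basis = GFP/RFP fluorescence ratio | controls = DMSO and RFP-L50D-GFP cell wells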
# eIF4H FP inh: inhibitors of RNA binding by human eIF4H; 290,000 tested, 0.94% active; AID 2012; eIF4H fluorescence polarization binding assay; inhibition, % at 35 µM; Q15056;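 active = 50% or more with normal probe brightness, or confirmed in later tests; about a fifth of its hits are not listed in these tables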;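 note: calls also rest on retests at 20 µM and on dose response follow-up; 0% = protein and probe with vehicle and 100% = probe without protein; strong numbers were not always called active; many hits fall short of the cut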
# Yeast UUG start: modulators of start codon recognition fidelity in yeast | AID 602363 | activity score, % at 18.7 µM | S. cerevisiae UUG-firefly luciferase reporter, luminescence/redox ratio | 350,000 tested, 0.13% active;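 active = replicate mean at a twofold rise or more, about +100% in these data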;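 note: firefly luciferase made from a UUG start codon reports start codon fidelity; reporter light over untreated wells divided by growth signal over untreated wells; some hits fall short of that in this replicate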
# Env fusion inh: HIV envelope-mediated fusion inhibition. HeLa-JRFL Env/CEM21 cell fusion, luciferase. inhibition, % at 12.3 µM. 360,000 tested, 1.1% active;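 active = mean replicate inhibition score of at least 50 and every replicate individually at or above 50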;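 note: 0% = plate neutral controls and 100% = maraviroc near 300 nM; one replicate is shown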
# MT1-MMP act inh RFP: further read-out of MT1-MMP act inh, marked with its call; RFP signal change, %; measured here: RFP expression control read;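 0 = vehicle wells; hits needed this value within 50% of zero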
# Starred values were filed as active, the others as inactive; i = inactive; nt = not tested or not shown.
# Sequence of screens: PABP FP inh	Rce1 inh	Env fusion inh	CSC inhib	Yeast UUG start	MT1-MMP act inh RFP	MT1-MMP act inh	eIF4H FP inh
Cc1cc(C)c(OCCN2CC(C)OC(C)C2)c(Br)c1 (stereo not given)
→ 11	i	-22	15	nt	-1	-2	22
CCN(CC)C(=O)CSc1nnc(-c2cnccn2)n1-c1ccc(C)cc1
→ 5	i	-1	-10	-13	2	4	10
Cc1cnn(-c2cc(N/N=C/c3ccccc3)ncn2)c1
→ -5	i	nt	-7	-1	5	3	0
O=C(Nc1ccc(Cl)cc1)c1csc([C@@H]2C[C@H](O)[C@@H](CO)O2)n1
→ nt	nt	-131	nt	-6	-1	3	nt
COC(=O)c1ccc(C)c(NC(=O)CSc2nc3[nH]c(=O)cc(O)c3s2)c1
→ nt	nt	nt	-6	-2	5	-9	nt
C=CCN1CN(S(=O)(=O)c2cccs2)c2nc3ccccc3nc21
→ 98*	i	-14	0	-20	14	1	82*
COc1cccc(-c2nnc(SCc3nc4ccccc4s3)n2C)c1
→ 2	i	nt	-7	-7	-1	3	-3
COC(=O)c1ccccc1NC(=O)CSc1nc(Nc2ccccc2)nc(N2CCOCC2)n1
→ 11	i	25	21	-10	-6	-1	-7
OC(COc1ccccc1)CN1CCN(C(c2ccccc2)c2ccccc2)CC1 (stereo not given)
→ -12	i	1	25	-6	-5	-3	-4
O=C(NCc1csc(-c2cccs2)n1)c1ccsc1
→ -11	i	-18	-2	nt	1	1	-4
CN(CC(=O)Nc1cccc2ccccc12)c1ccc(S(=O)(=O)N2CCOCC2)cn1
→ 2	i	nt	nt	nt	-2	1	7
O=C(O)CCc1ccc(-c2cccs2)n1-c1ccc(C(=O)O)cc1
→ 19	i	0	-11	-1	5	-4	5
CCOC(=O)c1c(P(=O)(N2CCOCC2)N2CCOCC2)noc1N
→ 9	i	nt	-11	-10	5	-1	0
COc1ccc(S(=O)(=O)Nc2cccc(-n3cnnn3)c2)cc1OC
→ -2	i	-3	17	-8	3	1	-3
CCOc1ccc(C(=O)Nc2c3c(nn2-c2cccc(Cl)c2)CS(=O)C3)cc1 (stereo not given)
→ 6	i	nt	0	nt	3	0	-3
O=C(c1ccccc1F)N1CCN(S(=O)(=O)c2ccc(S(=O)(=O)N3CCCCC3)cc2)CC1
→ -3	nt	nt	-1	nt	1	4	-5
Cc1cc(C)cc(NC(=O)COC(=O)CCC2CCCC2)c1
→ nt	nt	-6	nt	-4	1	1	nt
CCOC(=O)c1sc(NC(=O)c2cccnc2)c(C#N)c1C
→ 2	i	nt	29	5	-12	1	-3
COc1ccc(S(=O)(=O)NC2CCCCC2)cc1C(=O)N1CCCCC1
→ 0	i	-10	-4	-22	0	1	-1
CC1(NC(=O)N2CCOCC2)CCS(=O)(=O)C1 (stereo not given)
→ 1	i	nt	38	-13	1	1	5
COC(C[C@H](O)C[C@@H](O)[C@H](C)OCc1ccccc1)OC
→ -2	i	-5	nt	-5	0	0	6
CCN(CC)S(=O)(=O)c1cccc(C(=O)NCC2CCCO2)c1 (stereo not given)
→ 5	i	nt	1	-12	1	4	2
Cc1ccccc1N1C(=O)CSC1=C(C#N)C#N
→ -9	i	-1	-9	-24	31	11	11
O=C(NC1CCSc2ccccc21)c1cccc([N+](=O)[O-])c1 (stereo not given)
→ -3	i	8	10	-7	0	2	7
NC(=O)Cn1nc([N+](=O)[O-])nc1Oc1ccccc1C(=O)N1CCOCC1
→ -14	i	-1	-5	nt	0	0	9
COCCNC(=O)NC1(C(F)(F)F)Oc2ccc(Cl)cc2O1 (stereo not given)
→ -6	i	-141	75*	-2	-11	3	-9
COc1ccc(Cl)cc1S(=O)(=O)NCc1cccs1
→ 6	i	nt	5	-16	10	6	-5
CCOC(=O)c1ccccc1Oc1c(F)c(F)nc(NCCO)c1F
→ 0	nt	nt	9	nt	-2	-9	7
CCN(CC)S(=O)(=O)c1ccc(-c2cn3ccc(C)cc3n2)cc1
→ -4	i	-44	-6	5	2	1	1
COc1cc2c(cc1OC)C(c1ccccc1C(F)(F)F)CC(=O)N2 (stereo not given)
→ -3	nt	-10	-11	-15	-4	1	-7

# Shown tab-delimited: part of the list above
SMILES	PABP FP inh	Rce1 inh	Env fusion inh	CSC inhib	Yeast UUG start	MT1-MMP act inh RFP	MT1-MMP act inh	eIF4H FP inh
CCOc1ccc(C(=O)Nc2c3c(nn2-c2cccc(Cl)c2)CS(=O)C3)cc1 (stereo not given)	6	i	nt	0	nt	3	0	-3
O=C(c1ccccc1F)N1CCN(S(=O)(=O)c2ccc(S(=O)(=O)N3CCCCC3)cc2)CC1	-3	nt	nt	-1	nt	1	4	-5
Cc1cc(C)cc(NC(=O)COC(=O)CCC2CCCC2)c1	nt	nt	-6	nt	-4	1	1	nt
CCOC(=O)c1sc(NC(=O)c2cccnc2)c(C#N)c1C	2	i	nt	29	5	-12	1	-3
COc1ccc(S(=O)(=O)NC2CCCCC2)cc1C(=O)N1CCCCC1	0	i	-10	-4	-22	0	1	-1
CC1(NC(=O)N2CCOCC2)CCS(=O)(=O)C1 (stereo not given)	1	i	nt	38	-13	1	1	5
COC(C[C@H](O)C[C@@H](O)[C@H](C)OCc1ccccc1)OC	-2	i	-5	nt	-5	0	0	6
CCN(CC)S(=O)(=O)c1cccc(C(=O)NCC2CCCO2)c1 (stereo not given)	5	i	nt	1	-12	1	4	2
Cc1ccccc1N1C(=O)CSC1=C(C#N)C#N	-9	i	-1	-9	-24	31	11	11
O=C(NC1CCSc2ccccc21)c1cccc([N+](=O)[O-])c1 (stereo not given)	-3	i	8	10	-7	0	2	7
NC(=O)Cn1nc([N+](=O)[O-])nc1Oc1ccccc1C(=O)N1CCOCC1	-14	i	-1	-5	nt	0	0	9
COCCNC(=O)NC1(C(F)(F)F)Oc2ccc(Cl)cc2O1 (stereo not given)	-6	i	-141	75*	-2	-11	3	-9
COc1ccc(Cl)cc1S(=O)(=O)NCc1cccs1	6	i	nt	5	-16	10	6	-5
CCOC(=O)c1ccccc1Oc1c(F)c(F)nc(NCCO)c1F	0	nt	nt	9	nt	-2	-9	7
CCN(CC)S(=O)(=O)c1ccc(-c2cn3ccc(C)cc3n2)cc1	-4	i	-44	-6	5	2	1	1
COc1cc2c(cc1OC)C(c1ccccc1C(F)(F)F)CC(=O)N2 (stereo not given)	-3	nt	-10	-11	-15	-4	1	-7

# Whole records as entered above.
# CN(CC(=O)Nc1cccc2ccccc12)c1ccc(S(=O)(=O)N2CCOCC2)cn1 is listed with PABP FP inh: 2; Rce1 inh: i; Env fusion inh: nt; CSC inhib: nt; Yeast UUG start: nt; MT1-MMP act inh RFP: -2; MT1-MMP act inh: 1; eIF4H FP inh: 7
# COC(C[C@H](O)C[C@@H](O)[C@H](C)OCc1ccccc1)OC is listed with PABP FP inh: -2; Rce1 inh: i; Env fusion inh: -5; CSC inhib: nt; Yeast UUG start: -5; MT1-MMP act inh RFP: 0; MT1-MMP act inh: 0; eIF4H FP inh: 6

# (further entries)
# Sequence of screens: PABP FP inh	Rce1 inh	Env fusion inh	CSC inhib	Yeast UUG start	MT1-MMP act inh RFP	MT1-MMP act inh	eIF4H FP inh
COc1ccccc1/C=C/C(=O)Nc1ccc2c(c1)OCCO2
→ -6	i	i	41	-18	-7	1	2
CCc1ccccc1NC(=S)N(CCN(C)C)C(C)c1ccccn1 (stereo not given)
→ 11	i	2	-7	-17	2	4	-4
C=CCn1c(C23CC4CC(CC(C4)C2)C3)n[nH]c1=S
→ 7	i	4	nt	-15	-4	3	-10
CCn1c(CSc2nnc(-c3ccncc3)n2C)nc2cc(C(=O)O)ccc21
→ 16	i	9	-10	-29	19	21	19
N#CC(Sc1ccccn1)c1ccc(Cl)cc1Cl (stereo not given)
→ -12	i	-7	-18	nt	-4	-6	11
CN(Cc1ccccc1)C(=O)C(=O)c1cn(CC(=O)N2CCCC2)c2ccccc12
→ -2	i	-1	-6	-4	1	-4	-2
O=C(NC(=S)Nc1ccc(F)c([N+](=O)[O-])c1)c1ccccc1F
→ -16	i	9	2	nt	-13	-7	-8
CCN(c1nc(N)c(C(=O)N=C(N)N)nc1Cl)C(C)C
→ nt	i	69*	-3	-4	-1	-1	nt
CS(=O)(=O)c1ccc(C(=O)OCC(=O)N2CCOCC2)cc1[N+](=O)[O-]
→ nt	nt	40	nt	-19	3	3	nt
Cc1cc(-c2c(C)[nH]n(-c3ccc(Cl)cc3)c2=O)n[nH]1
→ -7	i	-150	38	-40	4	9	9
O=C(NCCC1=CCCCC1)c1[nH]c(C(F)(F)F)nc1-c1ccccc1
→ nt	nt	37	nt	-24	-10	-2	nt
CCOCc1c(C(=O)NCc2ccccc2CN2CCCC2)oc2ccccc12
→ nt	nt	-2	0	-6	0	-4	nt
CCN(CC)c1cc(C)c2cc(NC(=O)c3cccs3)ccc2n1
→ 42	i	-22	52	-5	2	12	1
Cc1nc(-c2noc(-c3ccc(Cl)cc3)n2)c(C(F)(F)F)o1
→ -9	i	-10	-2	-17	3	0	-7
O=S(=O)(Nc1cccnc1Cl)c1ccc(-c2ccccc2)cc1
→ 16	i	4	14	8	-1	2	-11
Cc1c(CC(=O)NCC(=O)NCC(=O)O)c(=O)oc2c(C)c3oc4c(c3cc12)CCCC4
→ 5	i	6	5	-3	1	4	6
CCOc1ccc(CCNS(=O)(=O)c2cnc[nH]2)cc1OCC
→ 0	i	nt	-17	-13	1	3	1
Cn1cc(/C=C2\SC(=S)N(N3CCOCC3)C2=O)c2ccccc21
→ 0	i	-17	-8	nt	0	2	11
COc1ccc(-c2cc(=O)oc3c(C)c(OC(C)C(=O)NCc4ccccn4)ccc23)cc1 (stereo not given)
→ -11	nt	nt	-1	-22	-5	-2	-16
CN(C)S(=O)(=O)c1cccc(C(=O)NCCc2ccccc2)c1
→ -7	i	nt	-8	-33	0	7	1
CCOC(=O)c1c(NC(=O)CSc2nnc(-c3cccnc3)o2)sc(C)c1C
→ 5	i	nt	-16	-12	5	7	4
c1ccc(CNc2nc(-c3ccccc3)nc3ccccc23)cc1
→ 4	i	16	38	-23	1	1	-1
Cc1cc(=O)oc2cc(NC(=S)NNC(=O)c3c(Cl)cnn3C)ccc12
→ 15	i	-24	1	-24	-2	-5	-3
COc1ccc([N+](=O)[O-])cc1NC(=O)C1C2C=CC(C2)C1C(=O)O (stereo not given)
→ 12	i	14	8	10	-9	-8	6
COCC(=O)Nc1cc(C)cn(Cc2c(F)cccc2Cl)c1=O
→ -1	i	2	6	-6	2	-3	-6
CN(CC(=O)Nc1ccccc1Cl)C(=O)CCc1nc2ccccc2c(=O)[nH]1
→ nt	i	2	-2	-12	2	-1	nt
CN(C)/C=C(\C#N)C(=O)c1cccc(Oc2ccc(Br)cc2)c1
→ 7	i	-51	-3	-8	0	3	0
O=C1c2ccccc2C(=O)N1CCOc1ccc(F)cc1
→ 0	i	-12	-2	-41	-2	-2	1
Cc1ccc(-c2noc(C3CCCN(S(=O)(=O)c4ccc5ccccc5c4)C3)n2)o1 (stereo not given)
→ 16	i	nt	4	nt	2	-3	13
O=c1[nH]c(=O)n(Cc2ccco2)c2c1C(C(F)(F)F)(C(F)(F)F)N=C(c1ccco1)N2
→ 5	nt	-30	0	-18	4	7	2
COc1ccc2cc(C(=O)C3CCCN(Cc4cnc(C)s4)C3)ccc2c1 (stereo not given)
→ 0	i	35	-5	nt	-17	-4	-5
O=C1CC(C(=O)Nc2ncccn2)C(c2ccccc2)O1 (stereo not given)
→ 0	i	-77	-12	-20	2	-1	-8
CCOC(=O)Cc1csc(NC(=O)COc2ccccc2OC)n1
→ 9	i	nt	-1	-12	4	6	11
